MLL AF4-AF9 inh: inhibitors of human MLL-AF4/AF9 interaction | P42568 | AlphaScreen, biotin-AF4 peptide binding to FLAG-AF9 | inhibition, % at 10 µM | hit rate 0.47% among 350,000 | AID 651704;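 active = every replicate reaching a set inhibition limit, whatever the replicate mean, cut at about 25% in these data; inconclusive = mean inhibition reaches that limit but some replicates miss it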;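 also: 0% = plate neutral control median and 100% = total signal loss; the record names both 10 and 1 µM as test concentration; the first replicate is given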
ALR inh: blocks human ALR sulfhydryl oxidase activity | P55789 | purified ALR, DTT oxidation, H2O2 HRP-luminol luminescence | inhibition, % (no concentration beside the values) | hit rate 3.8% among 290,000 | AID 485317;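 active = mean and each replicate at 75% or more; inconclusive = only one of the two met; inactive = neither met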;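 also: stock transfer was 7.5 nL into about 7.5 µL; 0% = neutral wells and 100% = wells with inactivated enzyme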
Target sequence (P55789 whole entry, looked up): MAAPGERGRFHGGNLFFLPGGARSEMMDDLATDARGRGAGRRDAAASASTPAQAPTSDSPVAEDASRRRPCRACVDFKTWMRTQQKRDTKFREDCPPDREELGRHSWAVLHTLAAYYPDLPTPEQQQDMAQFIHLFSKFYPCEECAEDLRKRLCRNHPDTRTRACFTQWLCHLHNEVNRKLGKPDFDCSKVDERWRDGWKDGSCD
rRNA inh HTS: inhibits bacterial ribosomal RNA function over humanized ribosomes | hit rate 1.6% among 350,000 | AID 720706 | E. coli WT GFP vs humanized-ribosome RFP mutants, fluorescence, 24 h; stronger effect = lower value; DMSO median 0, no signal -100 | GFP signal change (wild-type ribosome), % (concentration not given with the values);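 active = significant combined selectivity score with lowered wild-type GFP, culture density cut under 30%, mutant RFP and density less affected; inactive = any of these conditions unmet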; also: one replicate is shown; some compounds called inactive have numbers as strong as hits
Ecoli growth: blocks Escherichia coli growth | OD600, 23 h; stronger effect = lower value | OD600 absorbance (test concentration not listed) | hit rate 0.21% among 330,000;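 active = OD600 absorbance below the run mean of sample wells minus 3.6 SD, in any replicate, cut at about 0.56 in these data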;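 also: stock transfer was 300 nL into about 60 µL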
Vif A3G: HIV-1 Vif–A3G interaction blockers – biochemical, TR-FRET, GST-Vif 1-94, biotin-A3G peptide, dose response retest, primary screen (AID 1117319); hit rate 0.57% among 260,000; inhibition, %; hits with a dose series show IC50 in µM; TR-FRET GST-Vif / biotin-A3G peptide binding; higher % means a stronger effect; test concentration not given here; strong numbers were not always called active;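 active = above the screen mean plus three standard deviations and confirmed in dose response; inconclusive = results disagree or hit not tested in dose response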;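 also: Vif residues 1-94 fused to GST binding biotinylated APOBEC3G peptide 110-148; 0% = full assay without inhibitor and 100% = GST in place of GST-Vif; retest series ran down from 100 µM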
FGF22 binding: shifts melting point of recombinant human FGF22; Q9HCT0; recombinant FGF22 thermal shift, SYPRO orange fluorescence; percent of sucrose octasulfate shift, DMSO zero; calls only at 9.99 µM; hit rate 1.5% among 340,000; AID 651658;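 active = melting point raised past a set limit in the mean and every replicate; inconclusive = no clear call; three in four hits are not shown here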
Target sequence (Q9HCT0 whole entry, looked up): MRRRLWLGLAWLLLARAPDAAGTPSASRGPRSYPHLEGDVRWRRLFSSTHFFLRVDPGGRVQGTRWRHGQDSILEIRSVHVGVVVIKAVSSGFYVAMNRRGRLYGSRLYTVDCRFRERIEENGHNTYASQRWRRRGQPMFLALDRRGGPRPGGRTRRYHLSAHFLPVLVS
HNF4A DNA FP: change in binding of human HNF4 alpha to DNA. hit rate 0.3% among 360,000. activity change, % at 10 µM. HNF4a-FITC DNA binding, fluorescence polarization, 1 h. AID 1224865; in the data active = activity change above about 30%, passing the limit was not always enough;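 also: controls were the assay level and a saturating level of protein; the project sought stronger binding though the title names inhibitors; some compounds called inactive have numbers as strong as hits; positive values seem to mean higher polarization but the record does not say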
Target sequence (P41235 whole entry, looked up): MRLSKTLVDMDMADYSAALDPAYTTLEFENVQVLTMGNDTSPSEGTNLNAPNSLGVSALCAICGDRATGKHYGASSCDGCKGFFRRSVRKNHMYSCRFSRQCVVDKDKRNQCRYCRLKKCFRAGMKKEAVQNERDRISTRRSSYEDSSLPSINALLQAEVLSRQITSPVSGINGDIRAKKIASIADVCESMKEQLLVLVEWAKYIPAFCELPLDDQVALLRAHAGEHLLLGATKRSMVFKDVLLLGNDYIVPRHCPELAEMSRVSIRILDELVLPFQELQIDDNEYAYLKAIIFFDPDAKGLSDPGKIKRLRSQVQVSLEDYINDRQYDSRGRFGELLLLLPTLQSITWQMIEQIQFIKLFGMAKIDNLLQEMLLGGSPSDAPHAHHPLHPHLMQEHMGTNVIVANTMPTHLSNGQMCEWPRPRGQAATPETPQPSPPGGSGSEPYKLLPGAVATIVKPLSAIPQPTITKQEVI
rRNA inh HTS OD600: also measured in rRNA inh HTS; calls as there; OD600 change, %; measured here: OD600 growth;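 optical density of the mix in the first replicate; 0 = DMSO median and -100 = no signal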
rRNA inh HTS RFP: second read-out of rRNA inh HTS, no call of its own (marks repeat the call); RFP signal change, %; measured here: RFP humanized mutant strains;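 first replicate; 0 = DMSO median and -100 = no signal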
An asterisk follows results filed as active; i = inactive; u = inconclusive; x = no result given; & = joins results of further samples. Some of the compounds tested, so the mix of outcomes need not match the whole.

SMILES	MLL AF4-AF9 inh	ALR inh	rRNA inh HTS	rRNA inh HTS OD600	rRNA inh HTS RFP	Ecoli growth	Vif A3G	FGF22 binding	HNF4A DNA FP
CC1CCCN(S(=O)(=O)c2ccc(C(=O)Nc3nnc(C4CC4)o3)cc2)C1 (configuration not stated)	2.5	4	-50	-70	-20	0.73	x	i	4.2
CSc1ccc(-c2ccco2)nn1	-2.6	-11	12	2	-0.3	0.69	12%	i	2.7
O=C1c2ccccc2C(=O)N1c1n[nH]c(CCc2ccccc2)n1	5.3	-1	10	10	2.4	0.65	u	i	-1.0
O=C(CCC(=O)Nc1ccccc1)N/N=C/c1ccccc1F	-5.8	-4	1	-1	-2.1	x	-2%	i	-0.3
O=C(NCc1ccccc1)NC(=O)c1ccncc1	x	-8	x	x	x	0.7	3%	x	0.5
CN(C)CCCNC(=O)[C@@H]1[C@@H](CO)[C@@H]2Cn3c(ccc(-c4ccccc4)c3=O)[C@@H]2N1C	0.2	x	2	4	-0.1	x	x	i	x
COc1ccc(N2CCN(C(=O)CSc3nc4nc(C)cc(C)n4n3)CC2)cc1	0.2	x	0	-4	4.6	0.63	-5%	i	3.8
C=CCNC(=S)N1CCc2[nH]c3ccccc3c2C1	3.3	98*	2	-3	1.2	0.67	-7%	i	-2.8
COc1cccc2sc(N(CCCN(C)C)C(=O)c3ccc(S(=O)(=O)N4CCc5ccccc5C4)cc3)nc12	29*	-44	-57	-59	-9.7	0.65	8%	i	3.9
CCOC(=O)NC(=O)CSc1nnc(SCCC(=O)O)s1	x	3	x	x	x	0.69	x	x	-2.0
O=C(NCC[C@@H]1CC[C@@H](NC(=O)C2CCCC2)[C@@H](CO)O1)c1cc(Cl)cc(Cl)c1	0.4	x	-3	-7	-1.0	x	x	i	x
CN(C)CCNC(=O)c1ccccc1-c1cc2ccccc2c(=O)o1	-0.6	-6	14	7	2.7	0.69	4%	i	2.2

The last 5 compounds of the part above open the next one.
SMILES	MLL AF4-AF9 inh	ALR inh	rRNA inh HTS	rRNA inh HTS OD600	rRNA inh HTS RFP	Ecoli growth	Vif A3G	FGF22 binding	HNF4A DNA FP
C=CCNC(=S)N1CCc2[nH]c3ccccc3c2C1	3.3	98*	2	-3	1.2	0.67	-7%	i	-2.8
COc1cccc2sc(N(CCCN(C)C)C(=O)c3ccc(S(=O)(=O)N4CCc5ccccc5C4)cc3)nc12	29*	-44	-57	-59	-9.7	0.65	8%	i	3.9
CCOC(=O)NC(=O)CSc1nnc(SCCC(=O)O)s1	x	3	x	x	x	0.69	x	x	-2.0
O=C(NCC[C@@H]1CC[C@@H](NC(=O)C2CCCC2)[C@@H](CO)O1)c1cc(Cl)cc(Cl)c1	0.4	x	-3	-7	-1.0	x	x	i	x
CN(C)CCNC(=O)c1ccccc1-c1cc2ccccc2c(=O)o1	-0.6	-6	14	7	2.7	0.69	4%	i	2.2
CSCCC(NC(N)=O)C(=O)Nc1ccc2ccccc2c1 (configuration not stated)	3.0	-2	-6	-10	-5.0	0.69	-2%	i	3.0
CNC(=O)c1cc(C(=O)c2ccccc2C(F)(F)F)c[nH]1	0.5	5	-10	-13	-7.2	0.68	1%	i	1.0
O=C(NC1CCCCC1)c1cc(S(=O)(=O)N2CCN(c3ccccc3)CC2)ccc1Cl	0.8	x	11	22	0.6	0.68	-8%	i	2.1
CCOc1ccc(CN(C)C(=O)c2ccc3c(c2)NC(=O)C(C)S3)cc1OC (configuration not stated)	-0.3	-2	x	x	x	0.7	x	i	-0.4
CCN1CCN(c2c(Cl)cccc2NC(=O)c2ccc3c(c2)OCCO3)CC1	x	-12	x	x	x	0.7	6%&-1%	x	-0.1
COc1cc(C2NC(=S)NC(C)=C2C(=O)Nc2ccc(C)cc2)ccc1O (configuration not stated)	-1.4	20	1	6	-4.6	0.76	-3%	x	3.4
CCOC(=O)N/N=C(\C)c1cccs1	-0.6	-7	9	11	1.5	x	4%	i	0.1
COC(=O)C1=C(C)N(Cc2ccccc2)C(=NCCc2ccccn2)N[C@H]1c1cccc(C(F)(F)F)c1	5.7	-11	-54	-79	-30	x	x	i	-1.6
O=C(CCn1c(=O)c2cccn2c2cccnc21)NCCCN1CCN(c2ccc(F)cc2)CC1	6.2	x	2	1	5.1	x	-3%	i	-0.1
COc1cccc(-c2ccc([C@H]3[C@@H](CO)N4CCCCN(C(=O)c5ccc6c(c5)OCO6)C[C@@H]34)cc2)c1	-4.3	x	4	-3	14	x	x	i	x
O=C(COc1ccccc1)Nc1cccc(-c2nn[nH]n2)c1	-0.6	99*	9	0	3.0	0.69	0%	i	2.2
CC(C)C[C@H]1CNC(=O)C(=O)N1C[C@@H]1CCCN1C[C@H](Cc1ccc(O)cc1)N1C[C@H](Cc2ccccc2)N(CC2CCCCCC2)C(=O)C1=O	0.7	x	-15	-11	13	x	x	i	1.0
O=C(NNC(=O)c1oc2ccccc2c1-n1cccc1)c1ccco1	-0.2	40	-11	-9	3.4	0.72	-11%	i	0.6
CCOC(=O)CSc1nc(N)c(C#N)c(-c2ccc(OC)cc2)c1C#N	x	-9	x	x	x	0.74	-151%	x	0.3
C[C@@H]1CN([C@@H](C)CO)C(=O)c2cc(-c3ccccc3)cnc2O[C@@H]1CN(C)Cc1ccc(C(=O)O)cc1	-8.4	x	-1	0	-0.5	x	x	i	x
Cc1ccccc1C(=O)N1CCC(C(=O)OCC(=O)Nc2cccc([N+](=O)[O-])c2C)CC1	4.5	x	7	0	0.3	0.68	x	i	-0.7
O=C(O)C1(c2ccccc2)CCN(S(=O)(=O)c2ccc(Cl)cc2)CC1	-1.6	1	-9	-7	-11	0.66	x	i	2.9
Cc1ccc(CNS(=O)(=O)c2ccc3c(c2)CCN3C(=O)CCCC(=O)O)cc1	-1.5	-6	9	0	-0.6	0.67	0%	x	5.0
CC(=O)N1CC(=O)N2[C@@H](CO)[C@@H](c3ccc(C#CC(C)C)cc3)[C@@H]2C1	0.3	x	0	2	3.3	x	x	i	x
Fc1cccc(Nc2nc3ccccc3n3nnnc23)c1	6.9	-1	12	10	2.6	0.73	5%	i	11
C(=C\c1ccccc1)/C=N/Nc1nc2ccccc2[nH]1	6.8	41	4	8	0.3	x	x	i	0.3
O=C1C2CC=C(Cl)CC2C(=O)N1CCN1CCOCC1 (configuration not stated)	x	-3	x	x	x	0.79	9%	x	-1.7
CC(OC(=O)/C=C/c1cccc(C(F)(F)F)c1)C(=O)NC1CCCCC1C (configuration not stated)	-1.8	-2	21	12	-0.8	0.63	1%	i	2.1
COc1ccc(NS(=O)(=O)c2cc(NC(=O)C3CCCCC3)ccc2N2CCOCC2)cc1	1.7	x	4	8	1.8	0.65	-11%	i	0.8

Compound profiles, from the list above. Screens in order: MLL AF4-AF9 inh | ALR inh | rRNA inh HTS | rRNA inh HTS OD600 | rRNA inh HTS RFP | Ecoli growth | Vif A3G | FGF22 binding | HNF4A DNA FP
C[C@@H]1CN([C@@H](C)CO)C(=O)c2cc(-c3ccccc3)cnc2O[C@@H]1CN(C)Cc1ccc(C(=O)O)cc1 in the list: -8.4 | x | -1 | 0 | -0.5 | x | x | i | x
COc1ccc(NS(=O)(=O)c2cc(NC(=O)C3CCCCC3)ccc2N2CCOCC2)cc1 in the list: 1.7 | x | 4 | 8 | 1.8 | 0.65 | -11% | i | 0.8

(list continues)
SMILES	MLL AF4-AF9 inh	ALR inh	rRNA inh HTS	rRNA inh HTS OD600	rRNA inh HTS RFP	Ecoli growth	Vif A3G	FGF22 binding	HNF4A DNA FP
CN(C)c1ccc(CNc2nc(-c3ccccc3)nn2S(C)(=O)=O)cc1	21	29	-23*	-15*	-1.9*	0.67	5%	i	-1.0
Cc1cccc(NC(=O)C2CCCN(S(=O)(=O)c3cccc4nsnc34)C2)c1 (configuration not stated)	1.7	-8	-7	0	-4.2	0.68	-477%	i	-1.2
COc1ccc(/C=C2/C(=O)N=C(N)N2C)cc1OC	x	-6	x	x	x	x	-1%	x	2.8
Clc1ncccc1-c1nnn(-c2ccccc2Br)n1	-4.4	12	-10	-24	-7.6	0.68	2%	i	-5.2
CC=Cc1ccc2n(c1=O)C[C@@H]1[C@@H](CO)[C@H](C(=O)NC3CCCC3)N(CC3CCCCC3)[C@H]21 (mixture of isomers)	-15	x	-12	-53	34	x	x	i	x
CCC(C)NC(=S)N1CCN(Cc2ccccc2)CC1 (configuration not stated)	-0.1	-10	12	9	1.6	0.67	-5%	i	1.1
O=C(NCc1ccc(C(F)(F)F)cc1)c1ccc(-c2ccc(F)c(F)c2)c2ccoc12	-2.7	x	9	4	1.9	x	x	i	-2.6
CC1=NN(c2ccc(Br)cc2)C(=O)/C1=C/c1cccs1	x	66	x	x	x	0.73	-1%	x	-1.5
COc1ccc(C(=O)NCCS(=O)(=O)NCc2ccco2)cc1	-0.4	x	15	11	2.8	0.68	15%	i	-2.1
COc1ccc(-c2cc(C(=O)NCc3cccc(C(F)(F)F)c3)[nH]n2)c(C)c1	-2.0	x	10	20	4.3	x	x	i	3.0
COC(=O)Cc1ccc(NC(=O)c2ccc3c(c2)C(=O)N(Cc2ccco2)C3=O)cc1	-1.0	2	2	6	-2.2	0.7	x	i	-0.8
O=C(C[C@@H]1C[C@@H]2c3cc(NS(=O)(=O)c4ccc(F)cc4)ccc3O[C@@H]2[C@@H](CO)O1)NCc1ccncc1	-0.6	x	2	5	0.6	x	x	i	x
CCCCNC(=O)C(Cc1ccccc1)NS(=O)(=O)c1ccc2c(c1)c(=O)n(C)c(=O)n2C (configuration not stated)	-7.4	21	2	2	0.5	0.77	9%	i	0.6
CCc1nc2c(OCc3ccc(C(F)(F)F)cc3)cccn2c1N(C)C(=O)C1CC1	3.3	x	2	-23	-7.7	x	x	i	-1.0
CCC(=O)N[C@@H]1C=C[C@H](CC(=O)NCC2CCCCC2)O[C@@H]1CO	-1.9	x	2	1	-1.8	x	x	i	x
C[C@H](CO)N1C[C@H](C)[C@@H](CN(C)S(=O)(=O)c2ccc(F)cc2)OCc2ccccc2-c2c(n(C)c3ccccc23)C1=O	-3.0	x	0	10	-1.3	x	x	i	x
CCCCCn1c(N)c(C#N)c2nc3ccccc3nc21	-9.9	-10	-4	-1	1.5	0.66	u	i	6.5
CCC(=O)N(C)C[C@@H]1Oc2cc(-c3ccc(C#N)cc3)ccc2S(=O)(=O)N([C@H](C)CO)C[C@@H]1C	-3.7	x	-3	-8	-0.9	x	x	i	x
O=C(Nc1ccccc1F)N[C@@H]1CC[C@H](CCNC(=O)C2CCOCC2)O[C@H]1CO	-1.2	x	2	-1	-3.3	x	x	i	x
CN(C)c1ccc(CNc2nc3ccccc3n2C)cc1	6.6	x	18	16	-0.8	x	x	i	-1.1
Cc1ccc(S(=O)(=O)N2CCN(c3ccccn3)CC2)cc1	-0.8	-3	19	10	-0.1	0.65	-1%	i	-2.4
Cc1ccccc1N=C(NO)c1cccnc1	-0.4	54	15	11	0.2	0.64	-1%	i	-3.8
Cc1cc(C)c(S(=O)(=O)c2ccccc2)c(Cl)n1	x	x	x	x	x	0.72	0%	x	2.1
Cc1ccc(O)c(-c2cc(C(=O)NCc3ccccc3)[nH]n2)c1	x	3	x	x	x	0.71	9%	x	1.4
CSCCC(NC(=O)C1CCC(C)CC1)C(=O)NCCN1CCC(C)CC1 (configuration not stated)	9.8	-11	18	10	3.3	0.69	25%	i	1.6
O=C(CSC1CC(=O)N(CCc2ccccc2)C1=O)Nc1ccc(Cl)cc1 (configuration not stated)	x	94*	x	x	x	0.67	9%	x	-1.0
